GIV-Gai inh = inhibitors of GIV peptide binding to Galpha-i3, primary screen, biochemical, fluorescence polarization, FITC-GIV GBA peptide, rat Galphai3; 90 min; active compounds read low; scaled: aluminum fluoride 0%, vehicle 100%; percent of control (FP), % (no concentration beside the values); 0.42% of 210,000 active; AID 1224905, 2016;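 active = replicate mean at 85% of control or lower, very high polarization wells dropped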;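 note: wells of about 15 µL received 100 nL stock; the first replicate is given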
Target sequence (P08753 whole entry, looked up): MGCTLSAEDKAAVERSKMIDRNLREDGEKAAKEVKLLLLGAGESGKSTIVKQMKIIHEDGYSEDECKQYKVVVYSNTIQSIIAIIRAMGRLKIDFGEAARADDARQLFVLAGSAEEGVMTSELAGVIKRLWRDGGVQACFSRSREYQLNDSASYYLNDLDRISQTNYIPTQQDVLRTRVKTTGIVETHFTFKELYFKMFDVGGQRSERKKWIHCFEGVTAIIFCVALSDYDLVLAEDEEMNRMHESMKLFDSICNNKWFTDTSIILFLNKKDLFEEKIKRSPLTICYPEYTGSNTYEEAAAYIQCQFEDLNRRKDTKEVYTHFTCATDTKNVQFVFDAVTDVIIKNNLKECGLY
Sa growth 42C = S. aureus growth inhibition at 42 and 30 °C, primary screen, LtaS inhibitor project, RN4220, two temperatures | OD600, 20 h, 42 °C; active compounds read low | relative growth, % (no concentration beside the values) | 0.53% of 170,000 active | AID 720641, 2013;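 active = growth at 42 °C up to 50% and 20 or more points under that at 30 °C, or under 10% at both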;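 note: 300 nL library stock went into each well; scaled to the means of positive and negative controls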
HCMV NEC inh = inhibitors of HCMV UL50-UL53 interaction, biochemical, HTRF; normalized percent inhibition; 0.15% of 190,000 active; HCMV UL50-UL53 nuclear egress complex (human cytomegalovirus); inhibition, % (test concentration not listed);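 active = both replicates at 50% or more, plus weaker picks with an unusually low signal ratio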;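 note: stock transfer was 100 nL into about 20 µL; 0% = negative control wells and 100% = wells with untagged competitor protein; inactives centre near -12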
Sa growth 42C second temp = also measured in Sa growth 42C; calls as there; relative growth, %; measured here: growth at 30 °C;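 optical density after 20 h as mean of two plates; 100% = untreated growth and lower means inhibition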
Starred values were filed as active, the others as inactive; / = no result given; & = joins results of further samples. Hits appear at their usual frequency; overall some 0.8% were active at least once.

SMILES	GIV-Gai inh	Sa growth 42C	Sa growth 42C second temp	HCMV NEC inh
CCCCn1c(CO)nc2ccccc21	/	108	91	-10
CCNc1nc(NC(C)C)nc(Oc2ccc(C(=O)OCC)cc2)n1	104	/	/	-15
CCOc1nc(SCCOc2ccc(C)cc2)nc(N(C)C)n1	100	/	/	2
COc1ccccc1NC(=O)Nc1ccnn1Cc1ccccc1	/	86	87	85*
O=c1c2ccccc2c(C=Nc2ccccc2Cl)c(O)n1-c1ccc(Cl)cn1	/	104	87	-19
CCC(=O)Nc1cc2c(cc1C(=O)CC)OCCO2	99	107	78	14
O=C(Cc1csc(NC(=O)Nc2ccc(Cl)cc2)n1)Nc1nccs1	107	83	83	-38
COc1ccc(CCNC(=O)c2cc3oc4ccccc4c3n2C)cc1OC	103	116	85	-4
CC(C)(C)C(=O)N1CCCC1c1nc2ccccc2s1 (stereo unspecified)	101	/	/	12
COc1cc(C2C3=C(CC(c4ccccc4)CC3=O)Nc3ncnn32)ccc1O (stereo unspecified)	100	/	/	-35
CSc1ccc(-c2nnn(CC(=O)Nc3sc4c(c3C#N)CCC(C(C)(C)C)C4)n2)cc1 (stereo unspecified)	104	105	89	-18
CC(C)(C)N(CCO)C(=O)CN1C(=O)/C(=C/c2cccc(Br)c2)SC1=S	99	86	81	/

Part of the list above, limited to GIV-Gai inh, Sa growth 42C second temp and Sa growth 42C.
Molecule | GIV-Gai inh | Sa growth 42C second temp | Sa growth 42C
CCCCn1c(CO)nc2ccccc21 | / | 91 | 108
CSc1ccc(-c2nnn(CC(=O)Nc3sc4c(c3C#N)CCC(C(C)(C)C)C4)n2)cc1 (stereo unspecified) | 104 | 89 | 105
CCNc1nc(NC(C)C)nc(Oc2ccc(C(=O)OCC)cc2)n1 | 104 | / | /

The results go on.
SMILES	GIV-Gai inh	Sa growth 42C	Sa growth 42C second temp	HCMV NEC inh
COC(=O)c1cc2occc2n1Cc1ccccc1	103	97	89	/
CSc1ccc(/C=c2/sc3nc4c(C)c(C)ccc4n3c2=O)cc1	100	106	83	/
CC(=O)Nc1ccc(SCC(=O)Nc2ccc(C#N)cc2)cc1	/	88	94	10
O=C(NCCN1CCCC1)c1cc(-c2ccccn2)nc2ccccc12	112	/	/	-27
N#CC1=C(N)Oc2c(c(=O)[nH]c3ccccc23)C1c1ccccc1 (stereo unspecified)	107	97	95	-12
NS(=O)(=O)c1ccc(CCNC(=O)CCCn2c(=O)[nH]c3ccc(Br)cc3c2=O)cc1	103	128	90	0
Cc1nc(-c2coc3cc(O)cc(O)c3c2=O)cs1	98	103	83	20
N/C(=N\OC(=O)Oc1ccccc1)c1ccccn1	97	95	82	-30
CN(C)/C=C/C=C1/CCc2ccccc2C1=O	-3.8*	92	62	-28
CCCn1c(C)cc(-c2csc(NC(=O)Cc3ccc(OC)cc3)n2)c1C	/	81	91	-23
O=C(CSc1nc(-c2ccccc2)c(-c2ccccc2)o1)c1ccc[nH]1	/	94	97	-20
CS(=O)(=O)Nc1nnc(CSc2ccccc2)s1	94	94	84	-20
O=C1C2C(C(=O)N1c1ccccc1)C1C=CC2C12CC2 (stereo unspecified)	101	98	87	-21
Cc1ccc(C)c(NC(=O)CSc2nnc3[nH]c(=O)cc(-c4ccccc4)n23)c1	99	101	97	/
Nc1ccc2nc(N3CCOCC3)sc2c1	/	101	94	-44
CCOCCCNc1ccc2nc3ccc(C)cc3c(=O)n2n1	108	115	85	-77
O=C(Cn1ncc2c3ccccc3n(Cc3ccccc3)c2c1=O)NCc1cccs1	108	101	88	-3
CCOC(=O)c1sc(COc2ccc(C3SCCS3)cc2)nc1C	105	126	90	-34
O=C(Cc1ccccc1)Nc1ccccc1N1CCOCC1	/	98	96	2
Cc1ccc(-c2nn(-c3ccccc3)cc2CN(Cc2ccccc2)C(=O)CCC(=O)O)o1	105	82	57	-23
O=C(Cn1c(=O)n(CC2CCCO2)c(=O)c2ccccc21)c1ccccc1 (stereo unspecified)	105	100	84	2
N#Cc1c(NC2=CC(=O)CCC2)sc2c1CCCC2	100	90	80	-43
c1ccc(N=C(Nc2ccccc2)Nc2ccccc2)cc1	102	90	86	-21
Cc1cccc(NC(=O)C(=O)NCC(c2cccnc2)N2CCOCC2)c1 (stereo unspecified)	104	115	93	-4
CCC(=O)Nc1ccc(CC)cc1-c1nc2ccccc2n(CC(=O)Nc2cccc(OC)c2)c1=O	97	113	88	-8
COc1ccc(CCNC(=O)C(=O)Nc2ccc(C)c(C)c2)cc1	107	109	94	-36
COc1ccc(C)cc1NC(=O)CN1C(=O)CCc2cc(S(=O)(=O)N3CCOCC3)ccc21	104	114	97	/
O=C(Nc1ccc2c(c1)OCCO2)Nc1nc(-c2ccccc2)cs1	100	/	/	-27
CCc1ccc(S(=O)(=O)NCc2nc3cccnc3n2Cc2cccc(OC)c2)cc1	116	87	92	/
CSCCSc1nc(-c2cccs2)c(-c2cccs2)[nH]1	/	112	90	-3
Clc1ccccc1Cn1c(-c2cccs2)nc2ccccc21	101	99	94	-20
Cc1nc(SCC(=O)Nc2ccc(S(N)(=O)=O)cc2)c2c3c(sc2n1)CCCC3	98	/	/	-3
CC(=O)S[C@@H]1CC2=CC(=O)CC[C@]2(C)[C@H]2CC[C@@]3(C)[C@@H](CC[C@@]34CCC(=O)O4)C12 (stereo partly specified)	/	93	87	-33
Cc1cc(=O)[nH]c(NN=C2CCN(Cc3ccccc3)CC2)n1	/	109	68	-32
NC(=O)c1ccc(N=Cc2ccc(O)cc2)cc1	102	104	102	0
O=C(NCC1CCN(Cc2cccc(F)c2)CC1)c1cc2ccc3cccnc3c2[nH]1	103	87	86	/
CCOC(=O)CSc1nc(C)cc(C)c1C#N	105	106	95	-11
O=C(CCNC(=O)c1ccccc1)Oc1ccc2c(c1)OCO2	/	82	91	-24
Cc1ccc(NC(=O)C(=O)NCCCN2CCOCC2)cc1C	107	112	90	-7
CCn1c(SCCOc2ccccc2F)nc2ccccc21	102	99	90	-21
Cc1ccc(OCCC(=O)N2CCN(Cc3ccccc3)CC2)cc1	/	97	95	16
COc1cc(N)cc(OC)c1OC	/	116	84	-7
CCn1c(SCC(=O)N2CCCCC2)nnc1-c1ccccc1O	97	106	85	/
CCOC(=O)Cc1csc(NC(=O)Nc2ccccc2)n1	101	/	/	-6
C=CCOc1c(Cl)cc(/C=N\n2nnnc2N)cc1OC	/	90	92	-14
COc1cccc(C(=O)COC(=O)c2cc(-c3cccs3)nc3ccccc23)c1	104	105	85	-26
O=C(NCc1ccccc1)c1ccc2ncccc2c1	110	89	85	-48
Cn1nc(C(F)(F)F)c(C#N)c1N1CCN(c2ccccc2)CC1	104	/	/	10
Cc1ccc(-c2nc3cccnc3n2CCNS(=O)(=O)c2ccc3c(c2)oc(=O)n3C)cc1	116	/	/	0
O=C(CSc1nc2ccccc2c2nc(-c3ccccc3)nn12)Nc1ccc(F)cc1	108	126	84	/
COc1ccc(N(CC(=O)Nc2ccc(C(C)C)cc2)S(=O)(=O)c2c(C)noc2C)cc1	105	91	92	-20
COc1ccc(Nc2ncc(C(=O)N3CCN(c4ccc(OC)cc4)CC3)c3ccccc23)cc1	100	111	98	-3
COc1ccc(C(=O)Nc2ccc3c(c2)NC(=O)CO3)cc1	108	/	/	-24
Nc1ccc(C(=O)Nc2ccc(C(=O)O)cc2N)cc1	124	108	98	/
CC(C)Cn1cc(C(=O)NCc2ccco2)c2c3ccccc3n(C)c2c1=O	99	107	87	/
CN(C(=O)CSc1nc2ccc(NC(=O)COc3ccccc3)cc2s1)c1ccccc1	104	106	86	-11
O=C(NC1CC(=O)N(c2ccc(Cl)cc2)C1)C(=O)c1c[nH]c2ccccc12 (stereo unspecified)	92&101	130	95	/
Cc1cc(C)n(-c2ccc(-n3cccc3)cc2)n1	100	107	89	-24
Cn1c(SCC#N)nnc1-c1ccc2ncccc2c1	102	120	87	-8
Cc1cccc(-c2nn3c(N(C)C)cc(C)nc3c2C)c1	107	/	/	-11
Following part:
SMILES	GIV-Gai inh	Sa growth 42C	Sa growth 42C second temp	HCMV NEC inh
CC(C)(C)C1CCc2c(sc(NC(=O)CCC(=O)O)c2C(=O)Nc2ccccc2C(F)(F)F)C1 (stereo unspecified)	100	105	48	-42
COc1ccc(CO)cc1OCc1ccccc1	98	99	86	-7
COc1ccc(OC)c(C(=O)COC(=O)C2Cc3ccccc3CN2C(=O)c2ccco2)c1 (stereo unspecified)	/	91	93	-14
CCS(=O)(=O)N1CCc2cc(C(=O)CSc3nnc(-c4cccs4)n3C3CC3)ccc21	/	85	90	-36
CCOC(=O)C1(NC(=S)N2CCOCC2)Sc2cc(C)ccc2NC1=O (stereo unspecified)	/	82	103	-2
Cc1c(C(=O)Nc2ccc(F)cc2)oc2ccc(S(=O)(=O)N3CCCCCC3)cc12	102	132	99	/
Cc1cc(NC(=O)CC(c2ccccc2)c2ccccc2)no1	/	102	100	2
O=c1nc2n(c3ccccc13)C(c1ccccc1)C(O)=C2c1nc2ccccc2[nH]1 (stereo unspecified)	/	88	89	-16
COCCN(Cc1ccco1)C(=O)c1cc2c(Cl)nc3ccc(C)cc3c2s1	105	92	91	-31
Cc1nc(SCC(=O)c2c[nH]c3ccccc23)n[nH]1	101	102	75	/
CCOC(=O)Cc1nc(N)ncc1C(=O)OCC	103	83	88	-18
COC(=O)c1ccc2cc(C(=O)O)ccc2c1	103	102	87	-35

Of the compounds above, 2 contain bromine:
SMILES	GIV-Gai inh	Sa growth 42C	Sa growth 42C second temp	HCMV NEC inh
CC(C)(C)N(CCO)C(=O)CN1C(=O)/C(=C/c2cccc(Br)c2)SC1=S	99	86	81	/
NS(=O)(=O)c1ccc(CCNC(=O)CCCn2c(=O)[nH]c3ccc(Br)cc3c2=O)cc1	103	128	90	0

The list goes on.
SMILES	GIV-Gai inh	Sa growth 42C	Sa growth 42C second temp	HCMV NEC inh
CCCCNS(=O)(=O)c1ccc(S(=O)(=O)n2cnc3ccccc32)cc1	96	96	77	4
Cc1cccc(C)c1NC(=O)C1c2cccc[n+]2CC(=O)N1CCO (stereo unspecified)	97	110	92	-18
CCOC(=O)c1cnn(-c2ccc(C(=O)Nc3ccc(C(C)=O)cc3)cc2)c1N	99	116	89	/
Cc1ccc(C2=NN(CC(=O)NCCCN(CC(C)C)CC(C)C)C(=O)CC2)cc1	94	106	86	/
Cc1cc2ccccc2c(=O)n1CC(=O)NCCC1=CCCCC1	108	101	93	5
O=C(O)CN1C(=O)CSc2ccccc21	/	93	90	-6
CCOC(=O)c1sc2nc(NC(=O)c3cccs3)sc2c1C	104	89	85	-15
CS/C(=N\S(=O)(=O)c1ccc(C)cc1)N1CCCCCC1	/	92	100	-25
O=C(COC(=O)C1(CC(=O)N2CCOCC2)CCCC1)Nc1c(F)cccc1F	/	95	95	-20
Nc1cc(N)nc(SCC(=O)NCc2ccccc2)n1	103	103	83	-20
COC(=O)CCC(=O)N1CCOCCOCCOCC1	102	120	100	-13
COc1ccccc1NC(=O)COc1ccccc1O	/	123	89	-29

Full records, quoted from the list. Values in the order: GIV-Gai inh, Sa growth 42C, Sa growth 42C second temp, HCMV NEC inh
`Cc1cc2ccccc2c(=O)n1CC(=O)NCCC1=CCCCC1` is listed with 108, 101, 93, 5
`CS/C(=N\S(=O)(=O)c1ccc(C)cc1)N1CCCCCC1` is listed with /, 92, 100, -25
`CCCCNS(=O)(=O)c1ccc(S(=O)(=O)n2cnc3ccccc32)cc1` is listed with 96, 96, 77, 4
`COc1ccccc1NC(=O)COc1ccccc1O` is listed with /, 123, 89, -29
`CCOC(=O)c1sc2nc(NC(=O)c3cccs3)sc2c1C` is listed with 104, 89, 85, -15

(more compounds)
SMILES	GIV-Gai inh	Sa growth 42C	Sa growth 42C second temp	HCMV NEC inh
FC(F)(F)Oc1ccc(N=Cc2ccc(Br)cc2)cc1	/	78	87	-13
Cc1nc2ccc(C(=O)OCC(=O)C(C)(C)C)cc2nc1C	/	100	92	-39
CC(C)(C)OCC(O)CN1CCN(C(=O)c2ccccc2)CC1 (stereo unspecified)	100	91	77	-22
COc1ccc(-c2nc(C)c(CCNC(=O)C(=O)Nc3ccccc3C#N)s2)cc1OC	100	104	91	/
CC1=[N+]([O-])C(N2CCOCC2)C(O)(c2ccccc2)C1 (stereo unspecified)	142	85	81	-32
O=c1c2c(nc3nc(CNc4ccccc4)[nH]n13)CCC2	122	/	/	-29
COc1ccccc1CNCCSc1nnnn1C	107	102	90	0
O=C1C(=O)N(C2CCN(S(=O)(=O)c3ccc(F)cc3)CC2)CCN1Cc1cccc(F)c1	98	/	/	-3
O=C(NC1CCCC1)c1ccc(N2C(=O)CCS2(=O)=O)cc1Cl	104	/	/	-29
CCC(C)n1nccc1NC(=O)C(C)Sc1ccccc1F (stereo unspecified)	/	87	95	-3
O=C(Nc1ccc(Br)cc1F)C1CCCN(c2nc3ccccc3nc2C(F)(F)F)C1 (stereo unspecified)	106	/	/	5
CC(C)N(CC(N)=O)c1nc(-c2cccnc2)nc2ccccc12	/	103	100	-10
Cc1ccc(N/C(=N/C(N)=S)c2ccccc2)cc1	102	93	87	/
CN(C)Cn1c(O)c(N=NC(=O)COc2ccc(Cl)cc2)c2ccccc21	104	95	73	-28
CCOc1ccc(CNC(=O)Cn2cc(-c3nnc(CC)o3)c3ccccc32)cc1	99	/	/	-6
O=C(Nc1cccc(Cl)c1)c1cnn(-c2ccccc2)c1	104	/	/	-9
Cc1cccc(C)c1NC(=O)c1oc2ccc3c(c2c1C)C(=O)CC(C)(C)O3	101	92	85	/
Nc1ncc(N=Nc2cc(C(=O)O)cc(C(=O)O)c2)s1	/	95	87	-121

Compound activity from PubChem.
